PKD1 kinase inh: inhibitors of human PKD1 kinase, biochemical, fluorescence polarization; 200,000 compounds, 0.056% hits; Serine/threonine-protein kinase D1 (Homo sapiens), Q15139; AID 797, 2007; inhibition, %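 (about 10 µM by stock and volumes)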; PKD1 kinase fluorescence polarization assay;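 active = inhibition of 50% or more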;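 also: controls were vehicle for no effect and a reference inhibitor for full effect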
Target sequence (Q15139 whole entry, looked up): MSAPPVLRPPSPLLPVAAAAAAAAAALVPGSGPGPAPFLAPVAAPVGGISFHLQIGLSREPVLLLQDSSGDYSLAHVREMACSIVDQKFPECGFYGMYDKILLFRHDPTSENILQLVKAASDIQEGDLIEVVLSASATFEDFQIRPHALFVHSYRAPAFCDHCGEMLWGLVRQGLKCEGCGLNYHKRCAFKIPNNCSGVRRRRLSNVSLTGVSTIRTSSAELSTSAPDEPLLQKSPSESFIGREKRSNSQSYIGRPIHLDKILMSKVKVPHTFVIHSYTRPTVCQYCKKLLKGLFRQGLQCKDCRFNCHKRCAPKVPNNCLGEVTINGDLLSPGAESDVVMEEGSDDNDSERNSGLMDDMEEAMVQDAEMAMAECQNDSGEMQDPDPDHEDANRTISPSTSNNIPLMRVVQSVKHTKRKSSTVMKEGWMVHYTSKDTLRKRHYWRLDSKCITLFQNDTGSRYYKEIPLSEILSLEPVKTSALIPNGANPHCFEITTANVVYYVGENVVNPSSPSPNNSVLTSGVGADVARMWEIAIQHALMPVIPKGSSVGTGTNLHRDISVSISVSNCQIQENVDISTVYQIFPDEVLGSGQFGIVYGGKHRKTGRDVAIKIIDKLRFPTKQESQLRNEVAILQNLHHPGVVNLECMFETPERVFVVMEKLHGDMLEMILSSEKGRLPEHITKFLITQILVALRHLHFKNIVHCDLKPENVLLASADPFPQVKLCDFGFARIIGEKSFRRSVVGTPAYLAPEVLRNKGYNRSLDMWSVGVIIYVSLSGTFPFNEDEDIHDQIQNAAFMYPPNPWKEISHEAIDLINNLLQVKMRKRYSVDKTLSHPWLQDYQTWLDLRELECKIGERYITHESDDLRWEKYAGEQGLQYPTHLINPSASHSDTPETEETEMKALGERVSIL
RGS16-Gao HTS: modulators of RGS16 binding to Galphao, primary screen, biochemical, human proteins, multiplexed bead flow cytometry; Regulator of G-protein signaling 16 (Homo sapiens) + Guanine nucleotide-binding protein …; binding response (% of control), % at 10 µM; 220,000 compounds, 0.38% hits; bead-based flow cytometry RGS16-Galphao binding, fluorescence; actives lie on both sides;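 active = below 25% or above 175%, edge rows of some plates excepted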;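 also: Galphao activated by GDP with aluminum fluoride before binding; 100% = wells without compound and 0% = beads without RGS; some results beyond the cut were filed as inactive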
Insulin prom inh: inhibitors of insulin promoter-driven GFP, primary screen, imaging, TRM-6 cells (human fetal islet line), eGFP reporter, cell count; reporter expression induced with tamoxifen; inhibition, % at 2 µM; 130,000 compounds, 0.9% hits; AID 1273, 2008;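 active = inhibition above the mean plus 3 SD, with well images judged a real hit on visual review, cut at about 60% in these data, passing the limit was not always enough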
GALR2 agonist: GALR2 receptor agonists, primary screen, cell-based; Galanin receptor type 2 (Homo sapiens), O43603; GALR2-expressing cells, agonist activation read-out; activation, %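 (tested at 5 µM)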; 140,000 compounds, 0.48% hits; AID 803, 2007;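 active = above mean plus 3 SD of all compounds, about 5% in these data, not always enough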;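 also: 0% = vehicle buffer wells and 100% = reference agonist at full effect; tested in CHO reporter cells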
HSV replic up: enhancers of HSV replication in host cells, fold increase, host cell viability; HSV replication augmentation in cells; maximum fold increase; 220,000 compounds, 0.005% hits;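 active = peak rise of 1.5-fold or more in the series; tested in PC3 cells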;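 also: first round at 10 µM; read as green reporter fluorescence; hits show the peak of a series up to 25 µM; 1 = signal of infected wells without compound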
Insulin prom inh cell count: further read-out of Insulin prom inh, marked with its call; normalized cell count, %; measured here: cell count, toxicity; reference of the scale not given here;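 cells exposed to compound for 48 h; stained nuclei by imaging scaled within each plate; lower means fewer cells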
HSV replic up primary fold: recorded beside HSV replic up, whose call it bears; fold increase; compound at 10 µM; measured here: primary screen fold increase 10 uM; tested in PC3 cells;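 GFP signal in the first replicate; 1 = infected wells without compound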
Numbers without * were called inactive; i = inactive; . = not tested or not shown; & = joins results of further samples.

A first look:
cpd	SMILES	PKD1 kinase inh	RGS16-Gao HTS	Insulin prom inh	Insulin prom inh cell count
1	Clc1ccc(-c2csc(NNC3=NCCCCC3)n2)cc1	-1	92	-16	124
2	COc1ccccc1C(=O)NCC(=O)NNc1ncnc(N)c1[N+](=O)[O-]	5	98	37	157

cpd	GALR2 agonist	HSV replic up	HSV replic up primary fold
1	-3.2	i	0.8
2	.	i	1.1

All compounds of this part (from the top)
cpd	SMILES	PKD1 kinase inh	RGS16-Gao HTS	Insulin prom inh	Insulin prom inh cell count
1	Clc1ccc(-c2csc(NNC3=NCCCCC3)n2)cc1	-1	92	-16	124
2	COc1ccccc1C(=O)NCC(=O)NNc1ncnc(N)c1[N+](=O)[O-]	5	98	37	157
3	O=C(Nc1ccc(F)cc1F)Nc1ccccc1C(=O)NCCN1CCNC1=O	.	102	.	.
4	COc1ccc(NC(=O)c2nc[nH]c2C(=O)N[C@@H](CC(C)C)C(=O)OC(C)(C)C)cc1	.	103	.	.
5	COc1ccc(/C=N/NC(=O)c2c(-c3ccccc3)noc2C)cc1	-5	103	-17	134
6	Cc1ccc(-n2c(SCC(=O)N/N=C/c3ccc(C)s3)nnc2-c2ccccc2)cc1	1	94	-19	131
7	CC(=O)Nc1ccc(S(=O)(=O)N2CCN(c3nc(NC4CCCC4)c4ccccc4n3)CC2)cc1	-9	97	-38	74
8	COc1ccccc1NS(=O)(=O)c1cc(NC(=O)CC(C)(C)C)ccc1N1CCOCC1	-10	96	67	67

cpd	GALR2 agonist	HSV replic up	HSV replic up primary fold
1	-3.2	i	0.8
2	.	i	1.1
3	.	i	0.91
4	.	i	0.72
5	-1.0	i	0.99
6	-0.8	i	1.1
7	-1.1	i	0.79
8	.	i	0.92

(continued)
cpd	SMILES	PKD1 kinase inh	RGS16-Gao HTS	Insulin prom inh	Insulin prom inh cell count
9	Cc1ccc(C(=O)Nc2nc(-c3ccccn3)cs2)o1	.	89	.	.
10	Oc1c(Cl)cc(Cl)cc1Sc1cc(Cl)cc(Cl)c1O	-10	107	19	85
11	Cc1ccc(NC2=NCC(=O)N2Cc2ccc3c(c2)OCO3)cc1	-4	99	-26	114
12	COc1ccccc1Nc1nc2nonc2nc1N1CCC(C)CC1	-4	113	.	.
13	NC(=O)NCC12CC3CC(CC(C3)C1)C2	-6	101	.	.
14	COc1ccc(C2NC(=O)NC(O)(C(F)(F)F)C2C(=O)c2ccc(F)cc2)cc1 (centres undefined)	-9	99	-240	50
15	CCN(CC)CC(=O)Nc1c(C)cccc1C	5&-8	105&85	32&38	44&127
16	CC(=O)NCC(=O)N1CCCC(C(=O)c2ccc(-c3ccccc3)c(F)c2)C1 (centres undefined)	1	95	.	.

cpd	GALR2 agonist	HSV replic up	HSV replic up primary fold
9	.	i	1.1
10	-1.3	i	0.94
11	-0.9	.	.
12	-1.6	i	1.1
13	-0.5	i	1
14	-1.2	i	0.75
15	-0.7&-1.4	.	.
16	.	i	1

More entries:
cpd	SMILES	PKD1 kinase inh	RGS16-Gao HTS	Insulin prom inh	Insulin prom inh cell count
17	O=C(NCc1ccc(Cl)cc1)c1ccc(Cl)cc1[N+](=O)[O-]	-5	99	-21	113
18	COC(=O)Nc1nc2ccc(-c3n[nH]c(=O)c4ccccc34)cc2[nH]1	2	83	-56	62
19	CS(=O)(=O)N1CCN(C(=O)c2c(F)cccc2F)CC1	-8	80	19	125
20	O=C(NC1CCCC1)c1noc2c1CCCCC2	-7	100	-42	107
21	COc1cc(CNCc2ccccn2)ccc1OCc1ccc(Cl)c(Cl)c1	-1	103	.	.
22	CCc1nnc(NC(=O)NCN2C(=O)C3C4C=CC(C4)C3C2=O)s1 (centres undefined)	3	98	-3	87
23	CC1=C(C(=O)N2CCc3ccccc32)C2(CCC(C)CC2)OC1=O (centres undefined)	7	153	.	.
24	Cc1ccc2c(Cl)cc(Cl)c(OCc3c(C)noc3C)c2n1	-2	103	32	103

cpd	GALR2 agonist	HSV replic up	HSV replic up primary fold
17	-1.6	i	0.91
18	-1.1	i	0.95
19	-0.4	i	1.1
20	-2.4	i	0.96
21	.	i	0.88
22	0.6	i	0.9
23	-2.3	i	0.88
24	-1.0	i	1

Continued:
cpd	SMILES	PKD1 kinase inh	RGS16-Gao HTS	Insulin prom inh	Insulin prom inh cell count
25	O=C(CCCn1c(=O)[nH]c2cc(Cl)ccc2c1=O)NCCN1CCN(c2ccccc2)CC1	-7	103	13	36
26	COCCOC(=O)C1=C(C)N(Cc2ccccc2)C(=O)NC1c1ccc(OC)cc1 (centres undefined)	1	107	22	52
27	CC1CN(CCC(=O)Nc2ccc3c(c2)OCO3)CC(C)O1 (centres undefined)	-1	124	.	.
28	COc1ccc(CNC(=O)COC(=O)CC2CCCC2)cc1	5	99	23	115
29	C=CCOC(=O)/C(=C\c1ccc(OC)cc1)NC(=O)c1ccco1	-1	113	.	.
30	O=C(Oc1ccccc1C(=O)Oc1ccccc1)c1ccco1	-5	94	-52	106
31	CCCC1=C(C(=O)OCC)C(c2ccccc2OCC)NC(=O)N1C (centres undefined)	-15	104	.	.
32	CCOC(=O)C1CCN(C(c2cc3ccc(C)cc3[nH]c2=O)c2nnnn2C2CCCCC2)CC1 (centres undefined)	-3	100	33	80

cpd	GALR2 agonist	HSV replic up	HSV replic up primary fold
25	0.5	i	0.9
26	-2.5	i	0.87
27	-0.2	i	0.92
28	0.3	i	0.9
29	-3.1	.	.
30	-2.3	i	0.99
31	0.2	i	1
32	-0.2	i	0.78

Continuation:
cpd	SMILES	PKD1 kinase inh	RGS16-Gao HTS	Insulin prom inh	Insulin prom inh cell count
33	COc1ccc(N(C)S(=O)(=O)c2ccc3c(c2)oc(=O)n3C)cc1	-7	114	.	.
34	COC(=O)C1CCN(S(=O)(=O)c2ccc(OC)cc2)CC1	1	104	3	128
35	COc1ccccc1CNC(=O)CSc1ccc(C)cc1	-5	105	-77	86
36	COc1ccc(NC(=O)CSc2nnc(Cc3cccn3C)n2CCc2ccccc2)cc1OC	-9	100	.	.
37	CC(C)(C)OC(=O)N1CCN(C(=O)c2cccnc2Cl)CC1	3	104	.	.
38	O=C(Cc1ccc(Cl)cc1)Nc1ccc(C(=O)N2CCOCC2)cc1	0	102	5	182
39	O=C(NNC1=C(C(=O)C(F)(F)F)CCC1)c1ccccc1O	-2	102	59	76
40	COc1ccccc1-c1cc(C(=O)Nc2c(C)n(C)n(-c3ccccc3)c2=O)no1	-11	102	.	.

cpd	GALR2 agonist	HSV replic up	HSV replic up primary fold
33	1.3	i	0.8
34	-0.2	i	0.79
35	-0.1	i	0.95
36	-1.7	i	1.1
37	.	i	0.87
38	.	i	0.94
39	-1.7	i	1
40	-1.6	i	0.97

Next part:
cpd	SMILES	PKD1 kinase inh	RGS16-Gao HTS	Insulin prom inh	Insulin prom inh cell count
41	O=C(CSc1ncnc2c1nnn2Cc1ccc(F)cc1)NC1CCCCC1	-1	99	.	.
42	O=C(NCc1ccc(F)cc1)C1CCC(CNc2c(N3CCCCC3)c(=O)c2=O)CC1 (centres undefined)	.	117	.	.
43	CC(=O)Nc1nc(N)n(-c2ccccc2)n1	-6	69	0	127
44	O=C(NCCC1=CCCCC1)C1CCN(C(=O)Cc2ccccc2)CC1	0	99	.	.
45	Cc1ccc(C)c(-n2cc[nH]c2=S)c1	0	100	.	.
46	CCNC(=O)c1c(NC(=O)C2COc3ccccc3O2)sc2c1CCCC2 (centres undefined)	4	-528	-27	20
47	O=C(CSc1ccc2ccccc2c1)NCCCN1CCCC1=O	-1	105	.	.
48	Cc1nc(Oc2ccccc2)c2ccccc2n1	-11	65	25	71

cpd	GALR2 agonist	HSV replic up	HSV replic up primary fold
41	.	i	0.87
42	.	i	0.93
43	-1.8	i	0.95
44	.	i	1.1
45	-0.6	i	0.96
46	-4.5	i	0.77
47	.	i	0.86
48	-0.6	i	1

(list continues)
cpd	SMILES	PKD1 kinase inh	RGS16-Gao HTS	Insulin prom inh	Insulin prom inh cell count
49	CCCc1cc(C(=O)Nc2cccc(Cl)c2)no1	-8	102	50	119
50	Cc1ccc(Cn2ncc3c(N4CCN(C5CCCC5)CC4)ncnc32)cc1	0	102	-27	90
51	Cc1cccc(S(=O)(=O)c2c(C)cc(C)nc2Cl)c1	-6	108	-17	132
52	CC(=O)c1ccc(S(=O)(=O)NCCCC(=O)NCCc2ccccn2)cc1	-6	104	.	.
53	COc1ccc(C2NC(=O)C(C#N)=C(S)N2c2cccc(C)c2)cc1OC (centres undefined)	0	106	.	.
54	COc1ccc(CCN2C(=O)NC(NC(C)=O)(C(F)(F)F)C2=O)cc1OC (centres undefined)	2	93	.	.
55	COc1ccc2nc(C)cc(SCC(NC(C)=O)C(=O)OC(C)C)c2c1 (centres undefined)	.	98	.	.
56	COc1ccccc1N1CCN(CC(O)COc2c(OC)cccc2OC)CC1 (centres undefined)	-2	99	.	.

cpd	GALR2 agonist	HSV replic up	HSV replic up primary fold
49	-0.8	i	0.79
50	.	i	1.3
51	.	i	1
52	-1.1	i	0.92
53	.	i	0.99
54	-1.4	i	1
55	.	i	0.95
56	-1.2	i	0.66

More entries follow.
cpd	SMILES	PKD1 kinase inh	RGS16-Gao HTS	Insulin prom inh	Insulin prom inh cell count
57	CCNC(=S)NNC(=O)c1csc(C)c1	4	107	.	.
58	CCCc1nc2sc3ccccc3c(=O)c2c(=O)n1Cc1ccco1	-4	108	.	.
59	CC(C)CNC(=S)NC(=O)c1ccc(F)cc1	1	109	-27	105
60	CC(C)Cn1c(CCC(=O)O)ccc1-c1cccs1	-2	90	-14	80
61	Oc1c(C=C2N=c3ccccc3=N2)sc(=S)n1C1CCCC1	-3	99	.	.
62	COCCCN1C(=O)C(=O)/C(=C(/O)c2ccc(OC(C)C)cc2)C1c1ccc(O)c(OC)c1 (centres undefined)	6	105	29	96
63	CN(C)c1ccc(/C=C/C=C2/SC(=S)N(c3ccccc3)C2=O)cc1	-3	100	-296	160
64	COc1ccc(/C=C2\N=C(c3ccccc3)N(c3ccc(C(=O)O)cc3)C2=O)cc1OC	.	113	.	.

cpd	GALR2 agonist	HSV replic up	HSV replic up primary fold
57	-1.2	i	1.2
58	1.7	.	.
59	-1.7	i	0.92
60	4.5	i	1
61	-1.1	i	0.73
62	-2.7	i	1
63	-3.3	.	.
64	.	i	1.1

Next results follow.
cpd	SMILES	PKD1 kinase inh	RGS16-Gao HTS	Insulin prom inh	Insulin prom inh cell count
65	CN(CC(=O)NC1CCCCCC1)S(=O)(=O)c1ccccc1	-9	98	-29	75
66	O=C1CC(c2ccccc2)n2nc(N3C(=O)c4ccccc4C3=O)nc2N1 (centres undefined)	-7	96	.	.
67	O=C(CO)N/N=C/c1ccc(Cl)cc1	2	77	.	.
68	CCOC(=O)c1nnn(-c2nonc2N)c1CN(C)Cc1ccccc1	-8	107	.	.
69	CCc1ccc(N2C(=O)Nc3ccccc3C2(O)C(=O)N2CCN(c3ccccn3)CC2)cc1 (centres undefined)	-4	101	-50	132
70	CC1(C)O[C@@H]2C[C@H]3[C@@H]4C[C@H](F)C5=CC(=O)CC[C@]5(C)[C@H]4[C@@H](O)C[C@]3(C)[C@]2(C(=O)CO)O1	-3	.	-52	102
71	CC(=O)c1cccc(NC(=O)COc2ccccc2C(=O)c2cc(C#N)c(=O)n(C3CCCCC3)c2)c1	-5	87	-23	91
72	CC1=CC(C)C2(COC(c3ccc[n+](C)c3)OC2)C(C)C1 (centres undefined)	2	118	.	.

cpd	GALR2 agonist	HSV replic up	HSV replic up primary fold
65	0.0	i	0.72
66	-2.8	i	1.1
67	-2.2	i	1.1
68	-1.5	i	1.1
69	.	i	0.94
70	2.0	i	0.84
71	-1.5	i	0.93
72	.	i	0.94

Entries of single compounds as entered above. Screens in order: PKD1 kinase inh, RGS16-Gao HTS, Insulin prom inh, Insulin prom inh cell count, GALR2 agonist, HSV replic up, HSV replic up primary fold
`CC1=CC(C)C2(COC(c3ccc[n+](C)c3)OC2)C(C)C1` (centres undefined) is listed with 2, 118, ., ., ., i, 0.94
`CCc1ccc(N2C(=O)Nc3ccccc3C2(O)C(=O)N2CCN(c3ccccn3)CC2)cc1` (centres undefined) is listed with -4, 101, -50, 132, ., i, 0.94

Source: PubChem BioAssay (several laboratories)
